MgrA-DNA mod = S. aureus MgrA-DNA binding modulation | fluorescence polarization | inhibition, %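 (about 10 µg/mL by stock and volumes)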 | actives 0.13% (n = 84,000) | AID 602314;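 active = above 50% in either of two replicates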;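 also: 0% = protein plus DNA without compound and 100% = DNA alone without protein; higher means less MgrA bound to DNA so lower polarization; one replicate is shown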
Sa helicase inh = S. aureus DNA helicase inhibition; purified S. aureus helicase, fluorescence unwinding assay; about half of the hits fall short of the stated cut; inhibition, %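 (tested at about 80 µM)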; actives 0.05% (n = 120,000); AID 485395;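 active = both duplicates at 50% or more, or one of them with a favoured structure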;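 also: 0% = mean of negative control wells and 100% = mean of positive control wells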
Starred values were filed as active, the others as inactive; · = no result given. A portion of the library. The share of hits here may be higher or lower than overall.

SMILES	MgrA-DNA mod	Sa helicase inh
COc1ccc2cc(C3CC(c4ccc(OC)c(OC)c4)=NN3C(=O)c3ccco3)c(Cl)nc2c1 (stereo not given)	1.1	7.0
Cn1c(C(=O)NCCC2=CCCCC2)cc2c(=O)n(C)c3ccccc3c21	-3.4	9.0
COCC1=NN(c2ccccc2)C(=O)C1	-1.4	15.0
O=C(Nc1ccc2cn[nH]c2c1)c1cc(=O)c2ccccc2o1	-1.6	9.0
CCCCN(c1ccccc1)S(=O)(=O)c1ccc(F)cc1F	·	6.0
Cc1cc(C)c(C#N)c(SCCS(=O)(=O)Cc2ccc(Cl)cc2)n1	0.5	2.0
Cc1csc(C(C#N)C(=O)CSc2cc(C)c3ccccc3n2)n1 (stereo not given)	·	10.0
COc1cc(OC)cc(OC(=O)C2=COCCO2)c1	·	-9.0
c1ccc(OCCn2c3ccccc3c3nc4ccccc4nc32)cc1	-0.1	10.0
Cc1nn(Cc2ccccc2Cl)c(C)c1C(=O)NCc1cccs1	·	-9.0
Oc1ccccc1C1OCC2(CO1)COC(c1ccccc1O)OC2 (stereo not given)	·	-32.0
CCCS(=O)(=O)N1CCC(C(=O)NCCc2ccccc2)CC1	·	-4.0
CCN(CC)c1ccc2c(C)c(CO)c(=O)oc2c1	·	-44.0
O=C(OCC(=O)c1ccccc1)/C(=C/c1cccs1)c1cccs1	·	-1.0
Cc1cc(-n2nc3ccc(Cl)cc3n2)c(O)c(C(C)(C)C)c1	8.4	-14.0
N#CC1=Cc2ccccc2C2NN3C(C#N)=Cc4ccccc4C3NN12 (stereo not given)	·	13.0
CCOC(=O)c1c(C)oc(N)c1C#N	·	22.0
CCC(C)NC(=O)CSC1=N/C(=C/c2ccc(OC)cc2)C(=O)N1Cc1ccco1 (stereo not given)	·	-12.0
Clc1ccc(/C=N/NCc2cn3ccsc3n2)cc1	·	-10.0
Cc1c(/C=C2\SC(c3ccccc3)=NC2=O)c(=O)n(-c2ccccc2)n1C	0.8	-51.0
CN1CCC(N(C)C(=O)c2cc(-c3ccco3)nc3ccccc23)CC1	3.2	-15.0
C=CCn1c(C(F)(F)F)nc2ccccc21	·	-16.0
CNC(=O)c1c(NC(=O)Cc2coc3cc(C)ccc23)sc2c1CCCC2	·	-17.0
O=C(Nc1ccccc1)N1CCCN(c2nc3ccc(Cl)cc3s2)CC1	·	-24.0
N#Cc1c(NC(=O)C(F)(F)F)oc(-c2ccccc2)c1-c1ccccc1	10.1	11.0
CCCn1c2ccccc2c2nnc(SCCNS(=O)(=O)c3ccccc3)nc21	1.8	-13.0
CCN(CC)C(=O)Cn1c(S(=O)(=O)CC)nc2ccccc21	·	9.0
Cc1cc(C)c2c(n1)nn1c(C)c(CCC(=O)NC(C)C)c(C)nc21	1.8	7.0
CCN(Cc1ccccc1)C(=O)Cc1c[nH]c2ccccc12	·	3.0
O=[n+]1cc(-c2ccc(Br)cc2)n([O-])c2c1CCC2	·	-24.0
O=C(COc1nsnc1N1CCOCC1)N/N=C/c1cccc(Br)c1	·	-29.0
CCOC(=O)N(c1ccccc1)S(=O)(=O)c1ccccc1C	-1.1	0.0
CCN1CCCC1CNC(=O)CCCn1c(C)c2cnn(-c3ccccc3)c(=O)c2c1C (stereo not given)	·	-8.0
O=C(CSc1nc2ccccc2s1)Nc1ccc2c(c1)OCO2	·	12.0
S=C(NN=C1CCCCCC1)Nc1cccc(Cl)c1	4.6	·
COc1cccc2c1NC(c1ccc(F)cc1)C1CC=CC21 (stereo not given)	-2.0	·
CSc1n[nH]c(N)c1-c1ccccn1	·	16.0
CCOc1ncccc1C(=O)OCc1cc(=O)oc2c(C)c(C)ccc12	·	-5.0
CSc1ccccc1NC(=O)CN(C)C(C)C(=O)Nc1cccc(C#N)c1 (stereo not given)	·	-12.0
CC1(C)CC2CC(C)(CN2S(=O)(=O)c2ccccc2C(F)(F)F)C1 (stereo not given)	·	8.0

By substructure, the entries above containing an aryl methoxy group (4)
SMILES	MgrA-DNA mod	Sa helicase inh
COc1ccc2cc(C3CC(c4ccc(OC)c(OC)c4)=NN3C(=O)c3ccco3)c(Cl)nc2c1 (stereo not given)	1.1	7.0
COc1cc(OC)cc(OC(=O)C2=COCCO2)c1	·	-9.0
CCC(C)NC(=O)CSC1=N/C(=C/c2ccc(OC)cc2)C(=O)N1Cc1ccco1 (stereo not given)	·	-12.0
COc1cccc2c1NC(c1ccc(F)cc1)C1CC=CC21 (stereo not given)	-2.0	·

(more compounds)
SMILES	MgrA-DNA mod	Sa helicase inh
C=CCOc1nc(NC(C)C)nc(NC(C)C)n1	·	8.0
COc1ccc(N(C=O)C(C(=O)Nc2c(C)cccc2C)c2ccc(Cl)cc2)cc1 (stereo not given)	-2.8	6.0
O=C(OCc1cc(=O)n2cc(Br)ccc2n1)c1ccco1	·	-17.0
NC(=O)c1cccc2c3c([nH]c12)CCCC3	·	-28.0
CC(C)CCOc1cccc(OCC(=O)Nc2ccncc2)c1	-0.9	-10.0
COC(=O)c1ccc(Oc2ccc(C(=O)OC)cc2)cc1	1.4	3.0
Cc1ccccc1C(=O)N=C1NC(=O)C(C)S1 (stereo not given)	·	4.0
O/N=C/c1ccc2c(c1)CCO2	0.8	·
COc1ccc(C(=O)Nn2c(-c3cc(OC)c(OC)c(OC)c3)nc3ccccc3c2=O)c(OC)c1	0.0	·
COC(=O)c1ccccc1S(=O)(=O)N1CCC(C(=O)NCCN2C(=O)S/C(=C\c3cccnc3)C2=O)CC1	·	-2.0
CC(c1ccc(F)cc1)n1cc(C(=O)NCCN(C)C)nn1 (stereo not given)	1.1	-6.0
O=S(=O)(Nc1ccc(C(F)(F)F)cn1)c1ccc(-c2ccccn2)s1	-0.7	·
COC(=O)c1c(-c2ccc(Br)cc2)noc1N	-2.1	6.0
Cc1nn(-c2ccccc2)c2sc(C(=O)OCCCc3nc(-c4ccccc4)no3)cc12	·	5.0
CC(=O)NC1=NC(=O)/C(=C/c2ccc(-c3ccc(C)c(Cl)c3)o2)S1	3.8	·
COC(=O)CCC1CC2(CCC1=O)OCCO2 (stereo not given)	0.2	·
CC1(C)CC(=O)C=C(Nc2ccccc2)C1	-0.2	2.0
Brc1cc2c(cc1Cn1nnc(-c3cccs3)n1)OCO2	·	-23.0
O=C(CN1C(=O)C2C3C=CC(C3)C2C1=O)NC1CCCc2ccccc21 (stereo not given)	-2.0	9.0
CCCN(CCC)c1nn2c(=O)c(C(=O)NCC)cnc2s1	·	1.0
CCN(CC)c1nc(C)nc(Cl)c1Cc1ccccc1	-1.3	7.0
C(=N\c1nccs1)/c1cccc2c1OCOC2	4.4	8.0
NCCSc1ccccc1	·	-8.0
CNC(=S)NC1CC2CCCC(C1)N2Cc1ccco1 (stereo not given)	-0.5	10.0
O=C(NCc1ccc2c(c1)OCO2)c1nnc(Cc2ccc(Cl)cc2)o1	·	-1.0
CC1(C)S[C@@H]2[C@H](NC(=O)C(C(=O)O)c3ccccc3)C(=O)N2[C@H]1C(=O)O (stereo not given in full)	1.4	·
Cc1ccc2[nH]c(=O)c(CN(C(=O)NC3CCCCC3)C3CCCCC3)cc2c1	0.2	6.0
CC(C)=CC1C(C(=O)N/N=C(\C)c2cc(F)ccc2O)C1(C)C (stereo not given)	·	9.0
Cc1cccc(NC(=O)COC(=O)/C=C/c2ccc(F)cc2)c1C	2.1	7.0
O=C1c2[nH]nc(-c3ccc(Br)cc3)c2C(c2cccs2)N1c1ccc(Cl)cc1 (stereo not given)	0.2	10.0
CCCN1CCC(NC2CCN(Cc3ccccc3)CC2)CC1	0.4	7.0
Cc1occc(=O)c1OC(=O)c1ccccc1F	·	20.0
O=C(CSc1nnc(-c2ccoc2)c(-c2ccoc2)n1)c1ccc(-c2ccccc2)cc1	71.1*	0.0
C1=CC2C(C1)CC2NCCc1nnc2ccccn12 (stereo not given)	·	7.0
CCC(CC)C(=O)c1c[nH]c(C(=O)O)c1	-2.8	·
COc1cc(/C=C2/C(=O)N(c3cccc(Br)c3)N=C2C)ccc1OC(C)C	0.9	·
N#CCC(=O)Nc1ccc(Cl)cc1Cl	-0.8	·
O=c1c2ccccc2c(-c2ccccc2)nn1CN1CCCCC1	3.2	·
CCc1ccc(NC(=O)CN2C(=O)CCc3cc(S(=O)(=O)N4CCCCC4)ccc32)cc1	·	20.0
CN(C(=O)Cn1c(=O)n(CCCCC(=O)NC2CCCC2)c(=O)c2ccccc21)C1CCCCC1	-0.1	13.0

Sorted by SMILES length (high to low): six of the compounds above
SMILES	MgrA-DNA mod	Sa helicase inh
CC1(C)S[C@@H]2[C@H](NC(=O)C(C(=O)O)c3ccccc3)C(=O)N2[C@H]1C(=O)O (stereo not given in full)	1.4	·
O=C(CSc1nnc(-c2ccoc2)c(-c2ccoc2)n1)c1ccc(-c2ccccc2)cc1	71.1*	0.0
COc1cc(/C=C2/C(=O)N(c3cccc(Br)c3)N=C2C)ccc1OC(C)C	0.9	·
CC(C)=CC1C(C(=O)N/N=C(\C)c2cc(F)ccc2O)C1(C)C (stereo not given)	·	9.0
CCCN1CCC(NC2CCN(Cc3ccccc3)CC2)CC1	0.4	7.0
CNC(=S)NC1CC2CCCC(C1)N2Cc1ccco1 (stereo not given)	-0.5	10.0

Next records
SMILES	MgrA-DNA mod	Sa helicase inh
O=C(Nc1nccs1)c1ccc2c(c1)CCCC2	·	-15.0
CNC(=O)Nc1ccc2nc(C)oc2c1	·	-12.0
Cc1ccc(C(=O)CC(C(=O)O)c2cn(CCC#N)c3ccccc23)cc1 (stereo not given)	4.7	7.0
Cc1ccc(C=Nc2ccc(Nc3ccccc3)cc2)s1	-1.2	12.0
COc1ccc2[nH]c(=O)c(CN(Cc3ccc4c(c3)OCO4)C(C)=O)cc2c1	-0.9	-3.0
CC(CN1C(C)CCCC1C)OC(=O)c1cccc(F)c1 (stereo not given)	·	7.0
C/C(=N\O)C(=O)NCCN1CCCCC1	·	-13.0
Cc1ccc(CSc2nnc(CCC(=O)O)c(=O)n2N)cc1	·	12.0
O=C(NC1CCN(C(=O)c2cccs2)CC1)c1ccccc1	-1.1	·
Cc1ccc(S(=O)(=O)N(C)CC(=O)N2CCC(Cc3ccccc3)CC2)cc1	-1.1	-8.0
O=C(Nc1ccccc1-c1nc2ccccc2[nH]1)c1ccc(S(=O)(=O)N2CCOCC2)cc1	-0.4	·
CC(C)N=C1NN=C(c2cccs2)CS1	·	30.0
O=S(=O)(c1ccc(Cl)c(Cl)c1)N1CCn2c(nc3ccccc32)C1	·	4.0
NNC(=O)c1cnn(-c2ccc(Cl)cc2)c1C(F)(F)F	1.7	·
COC(=O)COc1ccccc1OC	·	0.0
NCC(c1ccc(F)cc1)N1CCCCCC1 (stereo not given)	6.8	17.0
CC(C)(C)c1nnc2n1N=C(c1ccc(Br)s1)CS2	·	31.0
CCOc1ccc(NC(=O)CN2N=C(c3ccc(C)cc3)CCC2=O)cc1	·	14.0
CCOC(=O)CC(=O)CSc1nnc(NC(=O)c2c(F)cccc2F)s1	0.0	·
COc1ccc(C(=O)N(CC(=O)NC2CCCC2)Cc2ccc3c(c2)OCO3)cc1OC	-0.8	9.0
O=S(=O)(/N=C1\SCCN1S(=O)(=O)c1ccc(Cl)cc1)c1ccc(Cl)cc1	2.5	9.0
CNc1nccc(C(F)(F)F)c1C(=O)Nc1c(C)cccc1C	-1.4	·
O=C(O)CSc1nnc(C2CCCCC2)n1/N=C/c1cccc(F)c1	·	-10.0
C=CCNC(=O)c1ccc2snnc2c1	·	17.0
CC(C)(C)c1ccc(-c2noc(CSc3n[nH]c(=O)n3Cc3ccco3)n2)cc1	·	-32.0
CCOC(=O)Cc1csc(NC(=O)CSc2nc(=O)cc(N)n2-c2cccc(C)c2)n1	-0.5	5.0
CCSc1nnc(NC(=O)C2=NN(c3cc(C)ccc3C)C(=O)CC2)s1	·	-2.0
Cc1ccc(S(=O)(=O)NNS(C)(=O)=O)cc1	·	10.0
N#C/C(C(=O)c1ccccc1)=c1/s/c(=C\c2cccs2)c(=O)n1Cc1ccco1	·	-9.0
Cc1nc(SCC(=O)NC(C)(C#N)C2CC2)c2c(C)c(C)sc2n1 (stereo not given)	·	12.0
CCN1CCN(S(=O)(=O)c2ccccc2)CC1	1.1	6.0
OC(CN1CCc2ccccc21)C(F)(F)F (stereo not given)	0.0	·
c1ccc(-c2noc(-c3cccs3)n2)cc1	-1.1	6.0
N/C(=N\S(=O)(=O)c1ccc(Cl)cc1)N1CCSCC1	-0.8	·
Cc1cccc(NC(=O)CN(C)C(=O)C2CCCC2)c1C	·	-13.0
CC1(C)OC(=O)C(=Cc2ccc3c(c2)OCO3)C(=O)O1	·	-14.0
Cc1ccccc1C(=O)N1NC(=Nc2ccccc2)SC1(C)C	2.0	·
O[C@H]1C2C3CC4C5C3C1C5C1(OCCO1)C42 (stereo not given in full)	·	0.0
c1ccc2c(c1)N1CCCCCC1N2Cc1ccncc1 (stereo not given)	8.2	·
CCS(=O)(=O)N(C)c1ccc(C(=O)Nc2ccc(OC)cc2OC)cc1	1.6	6.0
CCN(CC(=O)c1ccc(Cl)s1)C1CCCCC1	·	6.0
CCOC(=O)C12CCCC(C(=O)OCC)(CC1=O)C(=O)C2	-0.2	·
CCCC1CCC(c2ccc(C(=O)CCN(C)C)cc2)CC1 (stereo not given)	19.6	20.0
COC(=O)/C=C/S(=O)(=O)c1ccc(Br)cc1	0.8	23.0
CCN1C(=O)/C(=c2\sc3nc(-c4ccccc4OC)nn3c2=O)c2cc(Br)ccc21	·	-30.0
CCOc1ccc(C(=O)CC(N)C(=O)O)cc1 (stereo not given)	-0.3	8.0
CCOC(=O)c1c(CN(C)C)n(C)c2c(O)c(N=NC(N)=O)c3ccc(Br)cc3c12	·	31.0
COc1ccc(NC(=O)CC2c3ccccc3Oc3ccccc32)c(OC)n1	·	-21.0
O=C(NC1CCCC1)c1cc2c(s1)CSC2	·	7.0
